Screening results from PubChem.
RecA intein inh = inhibitors of M. tuberculosis RecA intein splicing; P9WHJ3; cell-free RecA intein splicing, fluorescence; inhibition, %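 (about 9 µM by stock and volumes)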; 290,000 compounds, 0.75% hits; AID 2221; in the data active = inhibition above about 30%; inconclusive = no clear call, values can overlap the other calls;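 note: 0% = vehicle wells and 100% = reference inhibitor control wells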
Target sequence (P9WHJ3 whole entry, looked up): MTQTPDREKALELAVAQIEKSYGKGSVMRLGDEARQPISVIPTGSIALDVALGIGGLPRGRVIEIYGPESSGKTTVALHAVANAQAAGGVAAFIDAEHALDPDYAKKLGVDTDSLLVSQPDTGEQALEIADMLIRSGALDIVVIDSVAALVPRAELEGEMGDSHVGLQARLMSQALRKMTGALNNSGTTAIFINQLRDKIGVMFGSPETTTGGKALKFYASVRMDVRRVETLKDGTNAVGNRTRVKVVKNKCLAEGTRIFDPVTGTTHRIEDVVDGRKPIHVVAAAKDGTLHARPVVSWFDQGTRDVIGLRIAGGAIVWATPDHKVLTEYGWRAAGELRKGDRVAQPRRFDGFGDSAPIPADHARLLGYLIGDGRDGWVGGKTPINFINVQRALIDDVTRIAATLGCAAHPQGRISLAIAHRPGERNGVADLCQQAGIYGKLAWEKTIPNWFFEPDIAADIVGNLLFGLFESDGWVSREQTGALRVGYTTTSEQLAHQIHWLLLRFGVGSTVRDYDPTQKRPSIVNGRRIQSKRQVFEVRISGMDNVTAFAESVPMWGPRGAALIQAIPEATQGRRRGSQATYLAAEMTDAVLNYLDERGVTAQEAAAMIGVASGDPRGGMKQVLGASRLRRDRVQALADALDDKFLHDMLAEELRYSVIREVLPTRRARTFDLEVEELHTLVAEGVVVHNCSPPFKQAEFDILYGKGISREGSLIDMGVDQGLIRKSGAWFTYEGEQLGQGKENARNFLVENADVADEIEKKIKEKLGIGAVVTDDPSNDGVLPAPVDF
Mtb bLac sens = beta-lactam sensitization of Mtb H37Rv; M. tuberculosis H37Rv growth with meropenem, percent inhibition; hits of this screen are not shown here; inhibition, % at 25 µM; 330,000 compounds, 0.27% hits; AID 434955;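 active = about 74% or more and at least 40 points above the plate without the antibiotic, then above 30% in a dose series; inconclusive = first-round hits that could not be retested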;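 note: growth measured after seven days incubation then overnight dye step; 0% = bacteria only wells and 100% = bacteria with antibiotic; twin plates without the antibiotic show which effects depend on it; some results filed as inactive read as strong as hits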
Arbovirus anti = arbovirus infection inhibition; arbovirus infection cell-based antiviral screen; inhibition, % at 10 µM; 200,000 compounds, 0.37% hits;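 active = inhibition from about 30%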;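 note: bluetongue infection of BSR cells; cell survival read as ATP light after 72 h; 0% = infected wells without compound and 100% = uninfected wells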
Mtb growth = M. tuberculosis H37Rv growth inhibitors, H37Rv strain (AID 1626) | one-dose inhibition, % at 10 µM; IC50 in µM for titrated hits | M. tuberculosis H37Rv growth inhibition; higher % means a stronger effect | 220,000 compounds, 0.95% hits;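 active = confirmed in a dose series; inconclusive = inhibition above 80% but not taken into the dose series; inactive = below 80% or under 30% at every dose of the series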;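 note: bacteria incubated seven days before Alamar blue readout; 0% = bacteria only wells and 100% = bacteria with antibiotic wells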
YopH inh = YopH (Yersinia) phosphatase inhibition | fluorescence Ex485/Em525 | inhibition, %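 (about 10 µM by stock and volumes)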 | 140,000 compounds, 0.16% hits;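 active = inhibition of 50% or more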;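 note: controls were vehicle for no effect and minimum signal wells for full effect; inactives centre near -20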
Arbovirus anti repeat = further read-out of Arbovirus anti, marked with its call; inhibition, %; measured here: 10K subset replicate screen; many hits read low in the repeat;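 first of two repeat runs on a subset; 0% = infected and 100% = uninfected wells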
Starred values were filed as active, the others as inactive; u = inconclusive; x = no result given.

SMILES	RecA intein inh	Mtb bLac sens	Arbovirus anti	Mtb growth	YopH inh	others
Cc1cc(N2CCN(C3CCCC3)CC2)n2c(nc3ccccc32)c1C#N	-12.8	0.3	4.1	-3.6%	-14.3
Cc1ccc(S(=O)(=O)NCc2ccc(C(=O)NC3CCC(C)CC3)cc2)cc1 (stereo unspecified)	-4.2	5.7	x	x	x
CC(=O)OCC(=O)Nc1ccc(Cl)cc1Cl	-0.7	-6.3	7.1	-8.2%	-20.9
Cc1cccc(N2CCN(C(=O)c3ccc(Cl)c(S(=O)(=O)NCc4ccco4)c3)CC2)c1C	8.0	6.5	-16.2	x	-1.6
O=C(NNC(=O)C1CC(=O)N(Cc2ccccc2)C1)c1ccc(Br)cc1 (stereo unspecified)	1.0	-7.6	x	x	x
CN(C)C=NC(=O)c1ccc([N+](=O)[O-])c(CS(=O)(=O)c2ccc(Cl)cc2)c1	-3.1	-4.8	3.9	0.8%	-45.4
Cc1nc2ccccc2c(=O)n1NC(=O)CCC(=O)O	3.8	3.4	6.8	-0.6%	x
O=C1/C(=C\c2cccs2)N=C(c2cccs2)N1Nc1ccccc1	15.9	-7.9	-36.3	8.9%	-15.7
COC1(OC)C(/C=C/c2ccc(C)cc2)C(C#N)(C#N)C1(OC)OC (stereo unspecified)	58.7*	0.1	-33.8	4.1%	-17.5
CC1Cc2nc(SCC(=O)Nc3nccs3)n(Cc3ccccc3)c(=O)c2S1 (stereo unspecified)	3.4	-4.5	-8.5	2.2%	-14.5	Arbovirus anti repeat=-4.9
CC(=O)N1Cc2ccccc2C(C)CC12CCCC2 (stereo unspecified)	0.0	-10.2	2.5	0.9%	-5.7
CN(C)CCOC(=O)C12CC3CC(CC(C3)C1)C2	-0.6	3.0	5.1	-0.4%	-13.8
Cc1cc(=O)cc(C)n1-c1ccccc1N	1.0	-12.0	x	x	x
O=C1C(Cl)=C(Nc2ccccc2O)C(=O)N1CCc1ccccc1	4.5	62.3	3.7	11.5%	-12.3
O=C(CSc1nnc(NC2CCCCC2)s1)NC1CCS(=O)(=O)C1 (stereo unspecified)	-0.4	-11.7	9.0	-10.5%	-11.5
COc1ccc(NC(=O)CC2C(=O)N(c3ccccc3)C(=O)N2CCc2cccs2)cc1 (stereo unspecified)	-0.7	-5.9	1.4	3.5%	-2.2
COc1cccc(-n2c(=O)c3sccc3n(CC(=O)NC3CCCC3)c2=O)c1	-1.0	2.0	x	x	x
S=C(Nc1ccc2c(c1)OCO2)Nc1ccccc1Cl	x	-3.9	x	-2.3%	x
COc1ccc(CNC(=O)COc2ccc(S(=O)(=O)N3CCOCC3)cc2C)cc1	-0.4	-9.4	x	x	x
OCCC1CN(C/C(Cl)=C/c2ccccc2)CCN1C1CCCC1 (stereo unspecified)	0.8	-0.5	-26.8	-6.0%	x
CC(Sc1ccc(Cl)cc1)C(=O)NNC(=O)c1csc(N2CCOCC2)n1 (stereo unspecified)	0.0	-1.4	x	x	x
CC1=C(CC(=O)c2ccc(Cl)cc2)C(=O)c2ccccc2C1=O	68.4*	4.3	-29.7	8.4%	-35.8
Cc1cc(C2C(=O)CC(=O)CC2c2ccccc2)on1 (stereo unspecified)	-2.0	1.1	-1.2	7.6%	-33.7
O=C(C1CCCO1)N1CCN(C(=S)Nc2cccc(Cl)c2)CC1 (stereo unspecified)	-1.6	6.6	-0.5	3.2%	-28.5
COc1cc(/C=N/NC(=O)c2cc(C34CC5CC(CC(C5)C3)C4)[nH]n2)ccc1O	10.7	51.2	-12.6	-3.6%	-26.9
O=C(CN1C2CCCC1CC(NC(=O)C1CCCCC1)C2)Nc1ccccc1 (stereo unspecified)	1.8	-4.9	x	x	x
Cc1cc(=O)n2c(C)n[nH]c2n1	1.3	-8.3	-1.8	-0.6%	-5.8
O=C1COc2ccc(C(=O)COC(=O)CNC(=O)c3ccccc3)cc2N1	-0.3	15.9	16.6	7.3%	x
COc1ccc(OC)c(S(=O)(=O)NCC(=O)O)c1	-9.2	-1.0	x	-4.1%	x
COc1cc(NC(=O)Cc2ccccc2)ccc1NC(=O)Cc1ccccc1	-1.0	-2.5	x	x	x
COc1ccc(C(=O)CSc2nnn(-c3cccc(NC(C)=O)c3)n2)cc1	2.4	2.0	x	4.8%	x
CN(C)S(=O)(=O)c1cccc(NC(=O)CCc2nc3cc(S(=O)(=O)N4CCOCC4)ccc3n2C)c1	-2.0	-3.5	x	x	x
Cc1ccccc1Nc1nnc(SCC(=O)NCc2cccs2)s1	1.7	-0.4	-8.6	-5.3%	-22.0
O=C(COC(=O)C12CC3CC(CC(Br)(C3)C1)C2)Nc1cccnc1Cl	2.7	-1.4	-11.4	1.4%	x
COc1ccc(OCc2cc(C(=O)N(Cc3nccn3C)C(C)C)no2)c2ccccc12	14.0	4.7	x	x	x
O=C(NCC1CCCO1)c1ccccn1 (stereo unspecified)	-3.3	-6.1	-0.9	-8.2%	-10.4
CCn1c(SCC(=O)Nc2nccc(C)n2)nc2ccccc21	2.0	-7.0	x	-14.8%	x
CC(=O)NC(Cc1ccccc1)C(=O)OCC(=O)c1ccc(Cl)cc1 (stereo unspecified)	-2.9	0.7	1.4	-14.7%	-16.3
CC(=O)c1ccc(NC(=O)c2ccc(C)c(S(=O)(=O)N3CCOCC3)c2)cc1	-1.2	4.5	x	x	x
COc1cc(/C=N/NC(=S)NCc2ccccc2)ccc1OCC#N	7.8	-5.7	10.3	-1.1%	-34.0
Cc1nc(Nc2ccccc2)sc1-c1ccccc1	0.3	51.5	33.0*	10.5%	-18.7
CCCCC[C@H]1CN(Cc2ccccc2)C(=O)[C@@H]1CC(=O)NCc1ccccc1	13.4	74.7	x	x	x
CC(C)C(=O)Nc1nnc(SCC(=O)NCc2ccc3c(c2)OCO3)s1	-1.0	-2.1	-1.8	-2.7%	x
CCCCN(C)c1c(N2CCC(C(=O)OCC)CC2)c(=O)c1=O	-0.2	-6.3	x	-14.3%	x
CC(C)N1C(=O)S/C(=C/c2cccnc2)C1=O	2.6	-18.2	12.2	6.0%	-25.9
Cc1cc(=O)[nH]c(SCC(=O)NN(c2ccccc2)c2ccccc2)n1	-1.4	-0.5	x	-5.0%	x
CC(=O)c1c(O)c2ccccc2n(C2CCCCC2)c1=O	0.9	23.2	11.9	0.4%	x
CN(C(=O)COC(=O)c1ccc(-c2ccc(O)cc2)cc1)C1CCS(=O)(=O)C1 (stereo unspecified)	0.5	-0.8	x	-9.6%	x
COc1cccc(CC(=O)Nc2nc(-c3ccc(F)c(F)c3)cs2)c1	0.2	1.8	x	x	x
CC(=O)Nc1cccc(NC(=O)C2CCCN2C(=O)Nc2ccc(C)cc2)c1 (stereo unspecified)	0.3	7.4	-5.2	-9.4%	-44.6

Two compounds picked at random from the list so far, as already listed:
SMILES	RecA intein inh	Mtb bLac sens	Arbovirus anti	Mtb growth	YopH inh	others
CCCCN(C)c1c(N2CCC(C(=O)OCC)CC2)c(=O)c1=O	-0.2	-6.3	x	-14.3%	x
COc1cccc(CC(=O)Nc2nc(-c3ccc(F)c(F)c3)cs2)c1	0.2	1.8	x	x	x

5 neighbouring records out of the list so far, for reference:
SMILES	RecA intein inh	Mtb bLac sens	Arbovirus anti	Mtb growth	YopH inh	others
Cc1cc(=O)[nH]c(SCC(=O)NN(c2ccccc2)c2ccccc2)n1	-1.4	-0.5	x	-5.0%	x
CC(=O)c1c(O)c2ccccc2n(C2CCCCC2)c1=O	0.9	23.2	11.9	0.4%	x
CN(C(=O)COC(=O)c1ccc(-c2ccc(O)cc2)cc1)C1CCS(=O)(=O)C1 (stereo unspecified)	0.5	-0.8	x	-9.6%	x
COc1cccc(CC(=O)Nc2nc(-c3ccc(F)c(F)c3)cs2)c1	0.2	1.8	x	x	x
CC(=O)Nc1cccc(NC(=O)C2CCCN2C(=O)Nc2ccc(C)cc2)c1 (stereo unspecified)	0.3	7.4	-5.2	-9.4%	-44.6

The listing picks up; the 2 compounds before the break are reprinted first.
SMILES	RecA intein inh	Mtb bLac sens	Arbovirus anti	Mtb growth	YopH inh	others
COc1cccc(CC(=O)Nc2nc(-c3ccc(F)c(F)c3)cs2)c1	0.2	1.8	x	x	x
CC(=O)Nc1cccc(NC(=O)C2CCCN2C(=O)Nc2ccc(C)cc2)c1 (stereo unspecified)	0.3	7.4	-5.2	-9.4%	-44.6
CC1C(=O)N(Cc2cccc(F)c2)c2ccccc2N1C(=O)c1ccccc1 (stereo unspecified)	6.9	-0.4	x	x	x
Cc1cccn2c(=O)c3cc(C(=O)NCCCOC(C)C)sc3nc12	-16.5	-2.0	x	x	x
Cc1ccc(C(=O)NCC(=O)NC23CC4CC(CC(C4)C2)C3)cc1	-2.9	-2.4	x	x	x
CC1(C)C2CCC1(C)C(NC(=O)/C=C/c1ccccc1)C2 (stereo unspecified)	7.1	100.2	7.2	<0.195µM*	x
CCOC(=O)c1ccc(NC(=O)c2nc[nH]c2C(=O)N2CCC(C)CC2)cc1	-1.1	53.9	x	2.6%	x
O=S(=O)(c1ccc(NC2CCCCC2)cc1)N1CCOCC1	0.1	-8.8	8.5	-2.0%	7.0
O=C(CC(=O)NC1CCCCC1)N/N=C/c1ccccc1Cl	-2.0	-0.2	-4.4	-5.6%	-9.1
Cc1ccc(C(=O)/C=C/Nc2cccc(O)c2)cc1	-3.7	8.7	-0.7	-6.3%	2.0
O=C(c1ccc2c3n(nc2c1)-c1ccccc1CO3)N1CCCCC1	3.0	28.0	x	-1.4%	x
CCN(CC)CCNC(=O)c1ccc(NC(=O)/C=C/c2ccc3ccccc3n2)cc1	12.6	4.0	x	x	x
Cc1nnc(NC(=O)CSc2nnc(Cc3cccn3C)n2C)s1	8.4	-2.5	2.1	-10.1%	-20.7	Arbovirus anti repeat=8.8
Cc1ccc(N2CCN(CC(O)COC3CCCCC3)CC2)cc1 (stereo unspecified)	0.4	-2.7	-3.9	-5.3%	38.4
Cc1[nH]n(C(C)(C)C)c(=O)c1Sc1ccccc1	50.1*	-0.5	6.6	-1.7%	-65.1
O=S(=O)(O)c1ccc(SCc2ccccc2)nc1	-1.8	-6.0	x	x	x
COCCNc1nc(N)c([N+](=O)[O-])c(Nc2ccc(F)cc2)n1	-2.5	2.7	x	x	x
COc1ccc(NCC(=O)N/N=C/C=C\c2ccccc2)cc1	-10.3	u	-22.5	u	-18.7
O=C(CNC(=O)c1ccncc1)N/N=C/c1cccc([N+](=O)[O-])c1	0.4	-5.3	5.7	7.5%	x
CCCCS(=O)(=O)N1C2=NC(C(=O)OC)=C(C(=O)OC)[C@@H]3N(C)c4ccc(OC)cc4[C@]23C[C@H]1C(=O)OC	-1.3	-15.2	x	-3.4%	x
Cc1ccc(CNC(=O)c2ccc3c(c2)S(=O)(=O)c2ccccc2C3=O)o1	-0.2	-3.8	x	-3.5%	x
COc1ccc(CN2C(=O)NC(=O)/C(=C\c3cc(OC)c(OC)c(OC)c3)C2=O)cc1	9.7	-2.4	2.8	-3.2%	x
Cc1ccc(NC(=S)NCCO)c(C)c1	0.8	-7.8	2.5	-2.7%	-32.8
O=C(NNC(=O)c1ccccc1Br)c1ccccc1Cl	-1.7	4.8	6.7	2.4%	x
CCOc1ccccc1/C=C(\C#N)C1=CCCC1	0.8	-2.1	x	x	x
Cn1cccc1CNCc1ccccc1Cl	-1.8	-6.1	-3.4	4.6%	-37.2
O=C(NCCCn1cccn1)C1CCC(=O)N(Cc2cccc(C(F)(F)F)c2)C1 (stereo unspecified)	-1.9	-0.7	x	x	x
CCC(c1nnnn1Cc1ccc2c(c1)OCO2)N1CCN(c2ccc(F)cc2)CC1 (stereo unspecified)	4.5	-4.1	12.2	x	-51.9

Not all compounds are listed, so the mix of outcomes need not match the whole.
